High-throughput results deposited in PubChem BioAssay by ICCB-Longwood Screening Facility, Harvard Medical School.
Anaer choline gr: inhibitors of anaerobic choline-dependent gram-negative bacterial growth; Gram-negative bacterium anaerobic choline minimal medium, absorbance growth; stronger effect = lower value; many inactives read as strong as hits in the columns shown; calls only; 0.2% of 55,000 active; AID 1963822;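 active = growth z-score on choline under -2 at 7 or 20 h with little or no fall on glycerol, limits in tiers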;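 also: stock transfer was 300 nL into about 50 µL; the organism is E. coli; final concentration not given here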
Anaer choline gr early: recorded beside Anaer choline gr, whose call it bears; z-score; measured here: choline growth z-score, timepoint 1;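 score of optical density at 7 h as mean of two plates; lower means less growth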
* hit, by the source's call; i = inactive; & = joins results of further samples.

Below each compound – Anaer choline gr, Anaer choline gr early
CNC(=O)c1c(NC(=O)c2ccc(S(=O)(=O)N3CCCCC3C)cc2)sc2c1CCC2 (stereo not given)
  i, -0.5
O=C(Nc1ccc2c(c1)OCO2)c1nnc(C2CCN(S(=O)(=O)c3cc(F)ccc3F)CC2)s1
  i, -0.35
C=Cc1ccc(CSC2=NS(=O)(=O)c3ccccc3N2)cc1
  i, 0.83
CCCCN(C)S(=O)(=O)c1c(C)nn(-c2ccc(-c3ccccc3)nn2)c1C
  i, 0.8
Clc1ccccc1-c1nc2c3ccccc3ncn2n1
  i, 1.9
CCCCCCCCCCCCCCC[C@@H](O)[C@H](CO)NC(=O)CCCCCCC
  i, -0.14
CC(C)OC(=O)Cn1c2ccccc2c2nc3ccccc3nc21
  i, 0.4
CCCCCOc1ccc(-c2ccc(-c3ccc(C(=O)NC4CC(O)C(O)NC(=O)C5C(O)C(C)CN5C(=O)C(C(C)O)NC(=O)C(C(O)C(O)c5ccc(O)cc5)NC(=O)C5CC(O)CN5C(=O)C(C(C)O)NC4=O)cc3)cc2)cc1 (stereo not given)
  i, 0.85
COc1ccc(NC(=O)C2CCN(C(=O)c3cccn3-c3cccnc3)CC2)cc1OC
  i, -0.32
CCOC(=O)c1cc(-c2ccc(OC)c(S(=O)(=O)N(CC)c3ccccc3)c2)on1
  i, 0.76
COc1ccc(-c2cc(Oc3cccc(C(=O)NCC4CCCO4)c3)ncn2)cc1 (stereo not given)
  i, 0.2
CC1(C)C(=O)N(CC(=O)Nc2ccccc2)c2ccccc21
  i, -1.2
Cc1[nH]nc(-c2c(C)sc(C)c2S(=O)(=O)NCCc2ccc(Cl)cc2)c1C
  i, 1.4
CC(c1ccccc1)N1CCn2c(nc3cc(Cl)ccc32)C1 (stereo not given)
  i, 1
O=C1COc2cc(S(=O)(=O)N3CCCC3C(=O)N3CCOCC3)c(Cl)cc2N1 (stereo not given)
  i, -0.83
CCN1CCN(C(=O)CCCN2C(=O)c3ccccc3Sc3ncccc32)CC1
  i, -0.08
Cn1c(N2CCCC(C(=O)NC3CCCCC3)C2)cc(=O)n(C)c1=O (stereo not given)
  i, -0.44
Cc1cc2c(cc3n2CC(C)(C(=O)NC2CCCCC2)N(CCCN2CCN(C)CC2)C3=O)o1 (stereo not given)
  i, 0.14
Cn1c(O)c(C2=NNC(c3ccncc3)C2)c(=O)[nH]c1=O (stereo not given)
  i, -0.39
COCCNC(=O)COc1ccc(OCCNC[C@@H](O)COc2ccccc2)cc1
  i, 0.46
COC(=O)c1sc2ccccc2c1S(=O)(=O)N1CCc2ccccc2C1
  i, 0.02
CCS(=O)(=O)N1CCCC1c1ccccc1C (stereo not given)
  i, -0.24
Cc1ccccc1-c1nn2c(=O)cc(CN3CCN(C(=O)c4ccc(Br)cc4)CC3)nc2s1
  i, 0.08
CCCC(CCC)C(=O)Nc1c(C)nc2c(C)cccn2c1=O
  i, -0.28
CCCCN(CC)C(=O)CCc1nc(-c2nn(-c3ccccc3)c(=O)n(C)c2=O)no1
  i, -1.1
CCOc1ccc2nc(-n3nc(C)c4c3NC(=O)CC4c3cc(C)sc3C)sc2c1 (stereo not given)
  i, -0.97
COc1ccc(C)cc1NC(=O)CCc1nc(CSc2nc3ccccc3s2)no1
  i, 1.1
c1ccc(CCN2CCn3c(nc4ccccc43)C2)cc1
  i, -0.25
CCN(CCCNC(=O)c1sc2ncccc2c1-n1cccc1)c1ccccc1
  i, 0.26
CCOc1ccc(NC(=O)c2c(C)oc3ccc(OC)cc23)cc1
  i, 0.97

Complete entries, quoted from the list. Screens in order: Anaer choline gr	Anaer choline gr early
Profile of COc1ccc(C)cc1NC(=O)CCc1nc(CSc2nc3ccccc3s2)no1 : i	1.1
Profile of CCOc1ccc2nc(-n3nc(C)c4c3NC(=O)CC4c3cc(C)sc3C)sc2c1 (stereo not given) : i	-0.97

The list goes on.
Below each compound – Anaer choline gr, Anaer choline gr early
Cc1cc(S(=O)(=O)N2CCC(c3noc(-c4cccc(F)c4)n3)CC2)ccc1F
  i, 1.2
Cc1nc2cc(-c3ccccc3)nn2c(C)c1CCC(=O)NCCN1CCC(Cc2ccccc2)CC1
  i, 2.4
CCn1c(=O)c2sccc2n2c(CCC(=O)NCCC3=CCCCC3)nnc12
  i, 0.48
CC1CSc2ccc(S(=O)(=O)N3CCCC3)cc2N(CC(=O)N(C)C2CCCCC2)C1=O (stereo not given)
  i, -1.4
Cc1nn(-c2ccccc2)c2sc(C(=O)Oc3ccc4sc(=O)oc4c3)cc12
  i, -0.5
CCCC(=O)Nc1ncnc2c1ncn2[C@@H]1O[C@@H]2COP(=O)(O)O[C@H]2[C@H]1OC(=O)CCC
  i, -0.07&0.21
O=C(COc1ccc(Cl)cc1)Nc1cccc(N2CCCS2(=O)=O)c1
  i, -1
COC(=O)c1ccc(CN2CC(=O)N3CCCC3C2=O)cc1 (stereo not given)
  i, 0.27
O=C(NC1CCCCC1)N1CCN(c2cc(-c3ccccc3)ncn2)CC1
  i, 0.13
Cc1ccc(Cl)cc1NC(=O)Cn1c(=O)n(Cc2ccc(Cl)cc2)c(=O)c2nccnc21
  i, 0.48
Fc1ccc(Nc2nc(NCC3CCCO3)nc3c2cnn3-c2ccccc2)cc1 (stereo not given)
  i, 0.75
Cc1cc(C)c(S(=O)(=O)NCCc2cn3ccsc3n2)c(C)c1
  i, -0.88
CCCCSc1nnc2n(CCCC)c(=O)c3sccc3n12
  i, 0.3
COC(=O)c1cc(C(=O)Nc2ccc(O)cc2)c(=O)[nH]c1C
  i, -0.86
CCC(C)NC(=O)c1nn(-c2ccc(OC)cc2)c(=O)n(C)c1=O (stereo not given)
  i, 0.33
Cc1cc2nc(COC(=O)CNC(=O)c3ccccc3Cl)cc(=O)n2o1
  i, 0.32
COc1ccc(NC(=O)C2CCCN(S(=O)(=O)c3cc(-c4noc(C(C)C)n4)sc3C)C2)cc1 (stereo not given)
  i, 0.22
CO[C@@]1(NC(=O)C2SC(=C(C(N)=O)C(=O)O)S2)C(=O)N2C(C(=O)O)=C(CSc3nnnn3C)CS[C@@H]21 (stereo not given in full)
  i, -1.8
Cc1noc(C)c1C1CCCN1C(=O)Nc1ccc2c(c1)OCO2 (stereo not given)
  i, -0.28
Cc1nc2nc(CN)nn2c(C)c1CCC(=O)NCc1ccccc1Cl
  i, 0.85
CCn1cccc1-c1nc(C)c(C(=O)Nc2ccc(C(C)C)cc2)s1
  i, 1.2
CCCS(=O)(=O)N1CCOc2ccc(COCc3ccc(F)cc3)cc2C1
  i, -0.34
CCCN(c1nc2nc(C)cc(C)n2n1)S(=O)(=O)c1ccc(Cl)cc1
  i, 1.1
Cn1c(N2CCN(C(=O)c3ccc(C(C)(C)C)cc3)CC2)cc(=O)n(C)c1=O
  i, -0.41
CCn1nc(C)c2ccnc(N3CCC(C(=O)Nc4cc(OC)cc(OC)c4)CC3)c21
  i, 0.66
CCc1cc(C2CCCN2C(=O)c2cc(-c3ccco3)on2)on1 (stereo not given)
  i, 0.05
Cc1sc(-c2noc(C3CCC3)n2)cc1NC(=O)C1CC1
  i, 0.65
Cc1ccc(-c2c(C)nn3c2NC(=O)CCC3=O)cc1S(=O)(=O)Nc1cc(F)ccc1F
  i, -1
CCOc1ccc(CN2CCCC2c2cc(C)on2)cc1OC (stereo not given)
  i, 0.28
O=C(O)CCCCC1SC[C@@H]2NC(=O)N[C@H]12 (stereo not given in full)
  i, 0.18

Four compounds picked at random from the list so far:
Below each compound – Anaer choline gr, Anaer choline gr early
CCCS(=O)(=O)N1CCOc2ccc(COCc3ccc(F)cc3)cc2C1
  i, -0.34
CCn1nc(C)c2ccnc(N3CCC(C(=O)Nc4cc(OC)cc(OC)c4)CC3)c21
  i, 0.66
Cc1ccccc1-c1nn2c(=O)cc(CN3CCN(C(=O)c4ccc(Br)cc4)CC3)nc2s1
  i, 0.08
CCCCSc1nnc2n(CCCC)c(=O)c3sccc3n12
  i, 0.3

Entries above with a furan ring, fused or not, in the order listed:
Below each compound – Anaer choline gr, Anaer choline gr early
Cc1cc2c(cc3n2CC(C)(C(=O)NC2CCCCC2)N(CCCN2CCN(C)CC2)C3=O)o1 (stereo not given)
  i, 0.14
CCOc1ccc(NC(=O)c2c(C)oc3ccc(OC)cc23)cc1
  i, 0.97
CCc1cc(C2CCCN2C(=O)c2cc(-c3ccco3)on2)on1 (stereo not given)
  i, 0.05

Later entries:
SMILES	Anaer choline gr	Anaer choline gr early
COc1ccc(NC(=O)CSc2nccc3c2ccn3C)c(OC)c1	i	-1.5
O=C(O)CCC/C=C\C[C@@H]1[C@@H](/C=C/[C@@H](O)COc2cccc(Cl)c2)[C@H](O)C[C@@H]1O	i	0.49&-3.6&-0.33
Cc1ccc(S(=O)(=O)n2c(N)nc3ccccc32)cc1	i	0.6
COc1ccc(CNC(=O)c2cnc3sc(N4CCCCC4)nn3c2=O)cc1	i	-1.1
COc1cc2c(cc1OC)n(CC(=O)c1ccc(C)cc1C)c(=O)n1nc(CCn3nc(C)cc3C)nc21	i	0.96
CCOC(=O)[C@H](CCc1ccccc1)N[C@@H](C)C(=O)N1Cc2cc(OC)c(OC)cc2C[C@H]1C(=O)O	i	0.17
Cc1cc(Nc2ccccc2)nc(N2CCN(C(=O)Nc3cccc(Cl)c3)CC2)n1	i	0.12
Cc1cccc(-c2noc(CSc3ccc(-c4ccc5c(c4)OCO5)nn3)n2)c1	i	-0.69
c1cnc(N2CCN(c3nn4nnnc4c4ccccc34)CC2)nc1	i	0.84
CCOC(=O)c1cnn(CCOC(=O)COC)c1NC(=O)COC	i	0.2
Cc1ccccc1CNC(=O)C1(C)CCCN(C(=O)NCC2CCCO2)C1 (stereo not given)	i	-1.1
CCn1cnc(S(=O)(=O)N2CCCC(C(=O)N3CCOCC3)C2)c1 (stereo not given)	i	0.24
Cc1ccc(C(=O)NC2CCCC2)cc1-n1c(C)nc2cccnc21	i	-0.19
CCCNC(=O)c1cnc(N2CCOCC2)nc1	i	0.58
C=CCNC(=O)NC1CCN(C2=NS(=O)(=O)C(c3ccc(Cl)cc3)=C2C)CC1	i	0.31
CC1=C(C(=O)NCCN2CCN(c3cccc(C)c3C)CC2)C2(CCCCC2)OC1=O	i	0.75
Cc1ccc(-c2ccc(-n3nc(C)c(S(=O)(=O)NCC4CCCO4)c3C)nn2)cc1 (stereo not given)	i	0.47
CCc1ccc(NC(=O)N2CCC(n3cnc4ccccc4c3=O)CC2)cc1	i	1.5
COc1cc(OC)cc(C(=O)NC(=NCc2ccncc2)Nc2ccccc2)c1	i	-1.3
COc1cc(OC)cc(C(=O)Nc2nc(CC(=O)Nc3ccc4c(c3)OCCO4)cs2)c1	i	1
O=C(c1cc(-c2ccc3c(c2)OCO3)on1)N1CCCC1c1ccccc1F (stereo not given)	i	0.01
COc1ccc(Cn2c(CCC(=O)Nc3ccc(OC)cc3)nc3cccnc32)cc1	i	1.4
O=C(Nc1ccccc1)c1nnc(C2CCN(C(=O)C3CC3)CC2)s1	i	-0.09
CCc1nc2onc(C)c2c(=O)n1CC(=O)N1CCCC1	i	-0.88
Cc1ccc(-c2ccc(N3CCN(C4CCCCC4)CC3)nn2)cc1S(=O)(=O)N1CCCC1	i	-0.96
COc1ccccc1C(=O)N1c2ccccc2NC(=O)CC1C (stereo not given)	i	-1.8
Cc1ccc(Oc2nccnc2N2CCCC(C(=O)NCCC(C)C)C2)cc1 (stereo not given)	i	1.4
Cc1nn(-c2ccc(N3CCCC3)nn2)c(C)c1CCC(=O)N1CCN(c2ncccn2)CC1	i	1.5
Cc1cccc(-c2nc3ccccc3c3nnc(SCC(=O)N4CCCC4)n23)c1	i	-1.4
O=c1c2sc3ncccc3c2nc(SCc2ccc(Br)cc2)n1CC1CCCO1 (stereo not given)	i	1.8

Going on with the list:
SMILES	Anaer choline gr	Anaer choline gr early
Cc1ccccc1S(=O)(=O)N1CCC2(CC1)NCCN=C2NC(C)(C)C	i	0.31
Cc1ccc(-n2nc(N3CCCN(C(=O)C4CCCO4)CC3)ccc2=O)cc1C (stereo not given)	i	-0.47
O=C(c1ccc(F)cc1)N1CC(OCc2ccc(F)cc2)C1	i	-0.18
CCOc1ccc(NC(=O)N2CCN(Cc3nc4cc(Cl)ccc4o3)CC2)cc1	i	-0.99
Cc1nc2sc3ccccc3n2c(=O)c1S(=O)(=O)Nc1ccccc1Br	i	1.3
Fc1ccc(-c2noc(-c3ccc(NCc4ccc5c(c4)OCO5)nn3)n2)cc1	i	0.2
Cc1nc2sccn2c(=O)c1NC(=O)c1c(F)cccc1Cl	i	-1.3
COc1ccccc1NC(=O)NCCc1nc2cccnc2n1-c1ccccc1	i	1.6
O=c1oc2cc(O)c(O)cc2c2c1CCC2	i	-0.87
Nc1c(-c2ccccc2)cnc2ncnn12	i	-0.06
Cc1cc(C2CCCN2C(=O)c2c(F)cccc2F)no1 (stereo not given)	i	-0.07
CCCC(=O)Nc1cc(N2CCn3c(nc4ccccc43)C2)ccc1C	i	-0.18
CCC(CC)C(=O)N1CC(C)C(=O)Nc2ccccc21 (stereo not given)	i	-1.6
O=C1COc2ccc(NC(=O)c3ccc(Br)cc3)cc2N1	i	-0.49
CNC(=O)[C@H]1O[C@@H](n2cnc3c(NCc4cccc(I)c4)ncnc32)[C@H](O)[C@@H]1O	i	0.53
COC(=O)CNC(=O)c1sc2nc(C)nc(N3CCN(c4ccccn4)CC3)c2c1C	i	-0.85
Cc1ccccc1-c1nc(Cn2cnc3oc(C)c(C)c3c2=O)c(C)o1	i	0.53
O=C(Cc1c[nH]c2ccccc12)N1CCN(C(=O)c2nc(-c3ccc(N4CCCCC4)cc3)no2)CC1	i	0.43

Some of the compounds tested; the hit share may differ from the screen's.
